D2 agonist – activates the human D2 dopamine receptor. 360,000 compounds, 0.084% hits. AID 624465. activation, % (concentration not given with the values). DiscoveRx PathHunter D2 beta-arrestin, luminescence, 90 min; 100% = 57 uM dopamine signal; in the data active = activation above about 40%; inconclusive = about 15% to 40%; inactive = below about 15%; also: the text of the record calls up to 30% inactive
Target sequence (P14416 whole entry, looked up): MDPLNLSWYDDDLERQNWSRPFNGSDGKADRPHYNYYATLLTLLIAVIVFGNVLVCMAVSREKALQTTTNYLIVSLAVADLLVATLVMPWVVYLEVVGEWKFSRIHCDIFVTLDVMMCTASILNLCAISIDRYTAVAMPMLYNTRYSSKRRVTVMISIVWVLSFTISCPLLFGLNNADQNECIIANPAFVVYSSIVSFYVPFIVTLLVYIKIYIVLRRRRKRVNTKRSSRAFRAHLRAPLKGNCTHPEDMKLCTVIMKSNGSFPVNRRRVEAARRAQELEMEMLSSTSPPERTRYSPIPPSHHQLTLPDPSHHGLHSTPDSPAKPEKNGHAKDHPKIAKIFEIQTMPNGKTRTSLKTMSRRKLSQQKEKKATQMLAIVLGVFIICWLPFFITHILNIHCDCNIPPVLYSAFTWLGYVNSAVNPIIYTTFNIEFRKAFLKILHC
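DiscoveRx PathHunter D2 beta-arrestin cells (2,100/well) attached overnight, then compound-stimulated 90 min at 37 C in HBSS/10 mM HEPES/0.1% Tween-20 buffer; beta-galactosidase complementation read by luminescence after 1 h at ambient temperature. Dopamine 57 uM final (EC100) as control.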
PINK1 expr mod – modulators of PINK1 expression; PINK1 immunofluorescence, high-content cytometry, 24 h; Potency, µM (top dose mostly 76.6 µM), for the others: at the highest dose activation (PINK1 increase), usual class: activators; 410,000 compounds, 0.2% hits; active = well fitted activation curve with a large enough effect; inconclusive = small, poorly fitted or top-dose-only effect; inactive = flat fitted curve, though single readings scatter; cell line not stated here;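 also: potency is read from the fitted curve at half-maximal effect; % of control where 0% means no effect; nearly all actives have a fitted effect of over 65% in size; a mitochondrial uncoupler was the plate control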
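Compound titrations (5 concentrations, 24 h) on a stable cell line; DMSO and CCCP controls. Endpoint: fixed-cell PINK1 immunofluorescence with mitochondrial, cell and nuclear markers, scanned by microplate cytometer.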
D2 potentiator – human D2 receptor positive allosteric modulation | P14416 | DiscoveRx D2 beta-arrestin cells, luminescence, 90 min; 100% = 57 uM dopamine signal | potentiation, % (no concentration beside the values) | 360,000 compounds, 0.23% hits | AID 624464; active = potentiation of 50% or more; inconclusive = 30% to 50%; inactive = 30% or less;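 also: compound concentration not given in the record; tested on top of an EC20 dose of dopamine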
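PathHunter beta-arrestin assay in DiscoveRx D2 cells. Compounds were added with an EC20 of dopamine (50 nM final) for 90 min at 37 deg C. Luminescence was read 1 h after detection reagent, with 57 uM dopamine as the EC100 control.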
TRPML1 agonist – human mucolipin-1 channel agonism. TRPML1-expressing cells, Ca2+ dye fluorescence, FDSS; host cell line not named in the record; reference of the full effect not given here. activation, % (no concentration beside the values). Q9GZU1. 410,000 compounds, 0.12% hits; in the data active = activation above about 50%; inconclusive = about 30% to 50%; inactive = below about 30%; also: 0% is about no effect; the text of the record puts the active cut at 80%
Target sequence (Q9GZU1 whole entry, looked up): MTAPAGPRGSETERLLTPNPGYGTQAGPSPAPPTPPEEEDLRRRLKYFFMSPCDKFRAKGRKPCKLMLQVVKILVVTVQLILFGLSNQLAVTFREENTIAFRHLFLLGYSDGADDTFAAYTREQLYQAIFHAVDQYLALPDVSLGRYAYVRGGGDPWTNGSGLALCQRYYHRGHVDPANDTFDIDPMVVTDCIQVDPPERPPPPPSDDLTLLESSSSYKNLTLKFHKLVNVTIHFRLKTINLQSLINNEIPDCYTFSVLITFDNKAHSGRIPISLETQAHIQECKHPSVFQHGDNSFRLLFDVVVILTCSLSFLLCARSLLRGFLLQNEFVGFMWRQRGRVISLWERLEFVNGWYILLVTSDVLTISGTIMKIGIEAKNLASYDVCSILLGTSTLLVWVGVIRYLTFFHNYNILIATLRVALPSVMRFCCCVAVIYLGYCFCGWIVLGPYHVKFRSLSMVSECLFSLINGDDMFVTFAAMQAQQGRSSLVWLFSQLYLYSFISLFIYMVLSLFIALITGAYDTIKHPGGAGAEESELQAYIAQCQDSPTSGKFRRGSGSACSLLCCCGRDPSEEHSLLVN
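Agonist activity was taken from a 110 s kinetic Ca2+ dye read on the FDSS after pinning compounds onto TRPML1-DL cells. The cells were seeded at 1,500/well with Tet inducer, incubated about 16 h, then dye-loaded at room temperature.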
Six1-Eya2 inh – blocks human Six1 binding to Eya2. Q15475+O00167. AlphaScreen GST-Six1/His-Eya2 binding, biochemical; hits give low values; control for the full effect not named in the record. activity change, % (concentration not given with the values). 360,000 compounds, 0.56% hits. AID 651725; in the data active = activity change below about -65%; inconclusive = about -30% to -65%; inactive = above about -30%; also: % is scaled to controls: 0 for no effect and ±100 for the full control effect
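Compounds are tested against tagged Six1 and Eya2 proteins bridged by glutathione donor and nickel acceptor beads; after a one-hour incubation at 37 °C without light, AlphaScreen emission is recorded.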
TRPML1 inh – human mucolipin-1 channel inhibition; Q9GZU1; TRPML1-inducible cells, Ca2+ dye fluorescence, FDSS; hits give low values; inhibition of EC80 agonist-evoked calcium signal; activity change, negative = inhibition, % (concentration not given with the values); 390,000 compounds, 0.02% hits; AID 624415; in the data active means activity change below about -50%; inconclusive means about -30% to -50%; inactive means above about -30%;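 also: stimulus is agonist 54-4 at its EC80 concentration; % is scaled to controls: 0 for no effect and ±100 for the full control effect; the text of the record puts the active cut at -80%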
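TRPML1-DL cells, Tet-induced overnight (~16 h, 37 °C) at 1,500 cells/well, were loaded with Ca8 no-wash dye plus quencher for 45-90 min at room temperature. Compounds were pinned during FDSS kinetic reading; agonist 54-4 at EC80 (4 uM final) then added.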
* = called active by the depositor; u = inconclusive; x = not tested or not shown; & = joins results of further samples; [ ] = dose if it differs, or a comment. An excerpt; rates above refer to the full screens.

SMILES	D2 agonist	PINK1 expr mod	D2 potentiator	TRPML1 agonist	Six1-Eya2 inh	TRPML1 inh
COc1cccc(NP(=O)(Oc2ccc(Cl)cc2)Oc2ccc(Cl)cc2)c1	-1.6	u	-20	3.3	3	52
CC(=O)NS(=O)(=O)c1ccc(NC(=O)c2cccn(Cc3ccc(Cl)cc3)c2=O)cc1	x	12%	x	1.4	x	5
Cn1c(O)c(/C=N/N2CCCCC2)c(=O)[nH]c1=O	-1.4	-1.1%	0	0.4	2	3
CC(C)COc1ccc(C2(C#N)CC[N+](C)(C)CC2)cc1	-0.7	0.7%	-9	-0.6	8	-8
COc1ccccc1NC(=O)N(Cc1ccc2c(c1)OCO2)C1CCN(Cc2ccccc2)CC1	x	3.5%	x	0.9	x	56
CCN(CC)c1ccc(N=Cc2c(O)n(-c3ccc(OC)cc3)c(=O)[nH]c2=O)cc1	-0.3	-1.8%	3	14	-4	23
O=c1[nH]c(=O)n(Cc2ccco2)c(O)c1C=NCc1ccco1	-3.4	3.7%[38.3 µM]	-15	0.4	-1	-11
O=c1c2ccccc2nc(C[n+]2ccccc2)n1-c1cccc(C(F)(F)F)c1	-2.2	4.0%	-1	-0.5	4	41
COc1ccc(C(Nc2ccccc2)P(=O)(Oc2ccccc2)Oc2ccccc2)cc1 (stereo not given)	-7.0	16%	-15	0.0	-17	16
Cc1sc2c(c1C)C(c1ccc(C(C)(C)C)cc1)=NCC(=O)N2CC(=O)Nc1nccs1	-2.4	1.6%	2	1.3	-9	6
CCOC(=O)C1(CCCc2ccccc2)CCN(C2CCC2)CC1	-4.2	0.7%	-15	0.4	0	16
CC(C)CC(N(C)C)C1(c2ccc(Cl)cc2)CCC1 (stereo not given)	-1.3&-1.9	7.8%&8.1%	-14&-16	1.7&0.7	4&3	54&62
COc1ccc(C2SCC(=O)Nc3c2c(=O)[nH]n3C2CCCCCC2)cc1OC (stereo not given)	-5.5	4.9%[38.3 µM]	-5	-0.3	-7	0
CCCCn1c(O)c(C=NC2CCCCC2N)c(=O)[nH]c1=O (stereo not given)	-2.0	-0.5%	-6	0.5	3	-17
CCCCn1c(O)c(C(C)=NCCc2ccccc2)c(=O)[nH]c1=O	-0.8	2.1%	-1	0.4	-2	-1
COc1ccc(CN2CCCC(C(=O)c3ccccc3SC)C2)cc1O (stereo not given)	-5.9	1.6%	-53	0.3	-10	9
O=C(C(Cc1ccccc1)NS(=O)(=O)c1ccc(F)cc1)N1CCC2(CC1)OCCO2 (stereo not given)	-2.9	2.8%	-12	0.5	10	-10
O=c1c2ccccc2ncn1-c1ccc([N+](=O)[O-])c(C(F)(F)F)c1	-1.0	3.1%	2	-0.6	-15	-1
Nc1ccc(C(=O)N/N=C2/CN3CCC2CC3)cc1	-0.1	1.3%[38.3 µM]	5	0.0	5	-10
CCC1(CCCC(=O)c2ccc(F)cc2)C(=O)NC(=S)NC1=O	-3.8	0.5%	-4	-0.6	3	-4
CCc1nccc2c1[nH]c1ccccc12	-3.4	-0.1%	-30	x	2	x
CCN(CC)S(=O)(=O)c1ccc(N=Cc2c(O)n(-c3ccccc3)c(=O)[nH]c2=O)cc1	-0.6	-0.1%	-3	-0.2	7	-5
NC(=O)c1ccc(N=Cc2c(O)n(Cc3ccco3)c(=O)[nH]c2=O)cc1	-2.5	1.7%	-3	-0.7	u	22
O=C(N/N=C/c1c(O)n(Cc2ccco2)c(=O)[nH]c1=O)c1ccccc1O	-0.3	2.4%	-9	0.6	-87*	21

Record cards, from the list above. Order of screens: D2 agonist | PINK1 expr mod | D2 potentiator | TRPML1 agonist | Six1-Eya2 inh | TRPML1 inh
`CCc1nccc2c1[nH]c1ccccc12` reads -3.4 | -0.1% | -30 | x | 2 | x
`O=C(C(Cc1ccccc1)NS(=O)(=O)c1ccc(F)cc1)N1CCC2(CC1)OCCO2` (stereo not given) reads -2.9 | 2.8% | -12 | 0.5 | 10 | -10

More results.
SMILES	D2 agonist	PINK1 expr mod	D2 potentiator	TRPML1 agonist	Six1-Eya2 inh	TRPML1 inh
CCN(CC)C(=O)c1ccc(NC(=O)C2=C(C)OCCS2)cc1	-1.5	-2.4%	-4	1.5	-6	-7
COc1ccccc1OCC#CCN1CCCC(C)C1 (stereo not given)	-5.1	0.5%	4	3.3	-4	8
Cc1ccccc1-n1nc(C)c2c1NC(=O)CSC2c1ccc(N(C)C)cc1 (stereo not given)	x	5.5%	x	3.5	x	-20
N#CC1=C(N)Oc2c(c(=O)oc3ccccc23)C1c1ccc(OC(=O)N2CCOCC2)cc1 (stereo not given)	-4.1	2.2%	3	0.5	5	8
CC1(C)CN(S(=O)(=O)OCC(Cl)(Cl)Cl)C(=O)N1	-3.2	5.4%	-15	-0.5	4	0
CN1CCN(c2ccc([N+](=O)[O-])c(N/N=C3\CN4CCC3CC4)c2)CC1	-4.0	-0.6%	-19	0.9	-5	10
COc1cc(C=C2C(=O)NC(=O)NC2=O)cc(OC)c1OC	-2.1	-1.8%	7	1.0	4	-23
CCOC(=O)COc1ccc(/C=C2\C(=O)NC(=S)N(c3ccc(OC)cc3)C2=O)cc1OC	-4.4	0.6%	-12	x	-3	x
Cc1cc(Cl)ccc1OCC(=O)N1CCN(C)CC1	-1.2	0.6%	-13	-0.1	3	-6
CCn1ccnc1CN1CCCC(C(=O)c2ccc(OC)cc2OC)C1 (stereo not given)	0.1	-0.1%	-11	-0.1	-6	30
CC(=O)NC1CC2CCCC(C1)N2 (stereo not given)	0.0	2.5%	-3	0.3	7	10
Cc1ccc2nc(-c3ccc(CN4CCC(n5c(=O)[nH]c6ccccc65)CC4)cc3)c(-c3ccccc3)nc2c1	x	0.1%	x	-0.3	-24	x
Cc1ccc(Cc2c(C)nc3nc(SCC(=O)N4CCC5(CC4)OCCO5)nn3c2C)cc1	-2.8	-0.1%	1	0.6	-1	-15
CN1Cc2c(c(C#N)c(N)n(C)c2=S)CC1(C)C	14	-1.5%	2	3.8	-1	4
COc1ccc2c3c([nH]c2c1)C(C)=NCC3	-5.3	2.5%	-15	2.9	u	4
C=CCCC1(C(C)C)C(=O)NC(=S)NC1=O	-1.7	-3.7%	-19	0.7	1	-19
CCC(=NCCN1CCCCC1)c1c(O)n(C)c(=O)n(C)c1=O	-3.1	1.1%	6	0.6	-2	39
O=P(C(Cl)Cl)(N1CCCCC1)N1CCCCC1	1.6	-1.7%	-2	-0.1	6	-15
O=C(CNC(=O)c1cccc(Cl)c1)Nc1ccc(Br)cc1C(=O)c1ccccc1	1.4	3.1%	-20	0.2	-10	-2
CN(Cc1ccccc1)C(=O)CN1CCCC1=O	-2.7	0.6%	-7	x	13	x
COc1cccc(-n2c(/C=C/c3ccccc3O)nc3ccccc3c2=O)c1	x	6.1%	x	1.2	x	9
O=c1[nH]c(=O)n(-c2ccc(Cl)cc2)c(O)c1C=Nc1ccc(S(=O)(=O)Nc2nccs2)cc1	-2.4	-0.5%	-10	-0.3	0	-15
Nc1c(C(=O)Nc2ccc(OC(F)(F)F)cc2)sc2nc3c(cc12)N1CCC3CC1	x	1.8%	x	-0.6	x	-16
Cc1[nH]c2ccc(O)cc2c1CCN	-1.7	1.0%	-11	0.7	-1	-13

Part of the list above, as labelled records:
Cc1[nH]c2ccc(O)cc2c1CCN
  D2 agonist: -1.7 | PINK1 expr mod: 1.0% | D2 potentiator: -11 | TRPML1 agonist: 0.7 | Six1-Eya2 inh: -1 | TRPML1 inh: -13

COc1ccc2c3c([nH]c2c1)C(C)=NCC3
  D2 agonist: -5.3 | PINK1 expr mod: 2.5% | D2 potentiator: -15 | TRPML1 agonist: 2.9 | Six1-Eya2 inh: u | TRPML1 inh: 4

(continued)
SMILES	D2 agonist	PINK1 expr mod	D2 potentiator	TRPML1 agonist	Six1-Eya2 inh	TRPML1 inh
CN1C2C=C(N(C(=O)c3ccc(Cl)cc3)c3ccccc3)CC1CC2 (stereo not given)	-1.3	-3.5%	-5	0.5	12	2
COc1ncccc1C(=O)NCC(CC(=O)O)c1ccccc1 (stereo not given)	-0.5	0.4%	-11	0.5	8	-12
CCN1CCN(Cc2nnnn2C(C)(C)C)CC1	3.3	-2.0%	-24	-0.1	5	4
C[C@]12CCC3C(CC[C@H]4C[C@@H](O)[C@H](O)C[C@]34C)C1CC[C@@H]2O (stereo not given in full)	0.4	0.1%	-3	-0.5	-1	-8
O=C(Cn1nc(Cc2cccnc2)c2ccccc2c1=O)N1CCC2(CC1)OCCO2	-1.0	0.5%[38.3 µM]	3	0.5	1	5
COc1cc(-c2ccc(N)c(OC)c2)ccc1N	-3.3	-0.4%	-13	-0.2	0	5
O=C(c1ccccc1)c1ccc(N=Nc2c(O)[nH]c(=O)[nH]c2=O)cc1	-1.0	0.8%	-12	0.4	0	20
CN1CC2=CC(O)CC3Oc4c(O)ccc(c4[C@]23C)C1 (stereo not given in full)	6.0	1.0%	-9	x	10	x
CC1CN=C(NCc2ccccc2)S1 (stereo not given)	-2.8	-3.5%	-17	5.7	3	8
COc1ccc(CN2CCN(C(=O)COc3ccccc3)CC2)c(OC)c1	x	-4.2%	x	2.0	x	12
CN1CCN(c2nc3ccccc3c(=O)n2-c2ccccc2)CC1	-1.0	0.3%	-5	-0.7	0	5
Clc1ccccc1CNc1nc2ccccc2n2cnnc12	-3.6	u	-11	0.2	-1	25
CCCN(CC#CCO)CCC	-2.0	-1.0%	1	-0.7	6	0
COC(=O)C1=C(c2ccccc2OCc2ccccc2)C[C@@H]2CC[C@H]1N2C(=O)NCc1ccc(OC)cc1	-1.5	-0.8%	-4	1.8	-16	24
Cn1c(O)c(/C=N/N2CCOCC2)c(=O)[nH]c1=S	1.7	0.6%	-7	0.2	-7	4
CNC(=O)c1cccn(Cc2cccc(C(F)(F)F)c2)c1=O	1.0	1.7%	-8	-0.2	5	18
CC(C)(C)n1nnnc1C(CCc1ccccc1)N1CCC2(CC1)C(=O)NCN2c1ccccc1 (stereo not given)	-2.0	-0.4%	-16	-0.2	-19	x
O=c1[nH]c(=S)n(C2CC2)c(O)c1C=NCCN1CCOCC1	-2.1	1.6%	1	-0.5	2	-7
Cc1cccc(C)c1-n1nnnc1C(C1CC1)N1CCC2(CC1)C(=O)NCN2c1ccccc1 (stereo not given)	14	0.7%	18	-0.6	-2	x
CCN(CC)CCO	-1.1	0.6%	-6	0.2	-1	28
COc1ccc(C(C)=O)cc1CC(C(=O)c1ccccc1)N(C)C (stereo not given)	-3.1	5.7%	-26	-0.7	-9	1
CCC(=O)[C@@H](C)[C@@H](O)[C@H](C)C[C@@H](C)C1OC(=O)C[C@@]2(O)CC=C(C)C(O2)C(C)=CCCC[C@H](O[C@H]2C[C@@H](OC(N)=O)[C@H](O)[C@@H](C)O2)C=C[C@H](C)C[C@H]1C (stereo not given in full)	x	0.1%	x	0.8	-13	x
O=C(O)CCn1cc(C=C2C(=O)NC(=O)NC2=O)c(-c2ccc(Br)cc2)n1	-3.9	2.2%	9	0.1	-2	-5
O=C1NC(=S)NC(=O)C1=Cc1cccc2cc3ccccc3cc12	-9.6	-0.6%	-60	-0.2	-11	-8
CCn1cc(CN2CCCC(C(=O)c3cccc(OC)c3)C2)c(C)n1 (stereo not given)	4.5	-2.0%	-14	0.1	-30	-5
CCN1CCN(Cc2ccccc2C)CC1	-2.6	-3.5%	-4	-0.3	0	-6

From PubChem BioAssay
